Screening data: PubChem BioAssay, SRMLSC
H5N1 CPE: MDCK cell protection from H5N1 avian flu | cytopathic effect, luminescence, 72 h; active compounds read high; no value below 0 was filed and about half of the inactive calls have no number; reference of the scale not given here | inhibition, % at 50 µM | actives 0.07% (n = 96,000); in the data active = inhibition above about 25%
An asterisk follows results filed as active; i = inactive. Not all compounds are listed; rates above refer to the full screens.

SMILES	H5N1 CPE
COc1cccc(NC(=O)COC(=O)c2ccc(S(=O)(=O)NCc3ccco3)cc2)c1	0.4
CC1CN(CCc2ccccc2)CC(C)O1 (configuration not stated)	0.8
O=C(CN1CCN(CCN2C(=O)c3cccc4cccc(c34)C2=O)CC1)c1ccc(F)cc1	1.9
COc1cccc(N(CC(=O)Nc2cccc(N(C)S(C)(=O)=O)c2)S(C)(=O)=O)c1	2.5
CC(Sc1ccc2c(c1)OCCO2)C(=O)Nc1ncc(Cl)cc1Cl (configuration not stated)	i
CC(C)(C)c1ccc(OCCCC(=O)NC2=NCCS2)cc1	0.2
CCOc1ccccc1C1C(C#N)=C(N)Nc2onc(-c3ccccc3)c21 (configuration not stated)	i
Cc1ccccc1NC(=O)c1cccc(N2C(=O)C3C4CCC(C4)C3C2=O)c1 (configuration not stated)	i
CC(C)Cc1nnc(NC(=O)CCC(=O)N2CCN(c3ccccn3)CC2)s1	i
Cc1ccc(S(=O)(=O)Cn2nnnc2C(C(C)C)N2CCN(Cc3ccco3)CC2)cc1 (configuration not stated)	i
COc1ccccc1N1CCN(C(=O)c2ccc(S(=O)(=O)N3CCCCCC3)cc2)CC1	1.1
COC(=O)COc1ccc(S(=O)(=O)Nc2ccc(C(N)=O)cc2)cc1	0.5
O=C(c1cc(-c2ccncc2)nc2ccc(Br)cc12)N1CCN(c2ccccn2)CC1	i
Cc1csc(NC(=O)CSc2nnc(-c3ccncc3)n2C)n1	0.7
O=C(CSc1nnc(-c2ccccc2)n1Cc1ccccc1)N1CCCC1	i
CCSc1nnc(N2C(=O)CC(c3ccsc3)C3=C2CC(C)(C)CC3=O)s1 (configuration not stated)	0.8
CCC(=O)Nc1cccc(NC(=O)CSc2nnnn2C2CCCC2)c1	i
CCOC(=O)/C(=C/c1c2ccccc2cc2ccccc12)NC(=O)c1ccccc1	i
CCOc1ccc(C(=O)c2ccncc2)cc1	0.6
COc1ccc2nc3oc(C(=O)Nc4ccc(OC)c(OC)c4)cc3cc2c1	i
COc1ccc(C2C(C#N)=C(N)Oc3n[nH]c(-c4ccccn4)c32)c(OC)c1OC (configuration not stated)	i
CCCc1cc(=O)oc2cc(C)cc(OCC(=O)O)c12	i
O=C(N/N=C/C=C\c1ccco1)c1cccnc1	2.5
NC(=O)c1cccnc1Oc1cccc(Cl)c1	i
Cc1csc(/C(C#N)=N/O)n1	1.2
Later entries:
SMILES	H5N1 CPE
CC1CCCCC1NC(=S)Nc1ccc(SC(F)F)cc1 (configuration not stated)	5.4
CC(C)NC(=O)NC(=O)COc1c(F)c(F)cc(F)c1F	i
CC1Cc2ccccc2N1C(=O)CSc1ccccc1 (configuration not stated)	3.7
CCN(CC)CCCN(Cc1cc2ccc(C)c(C)c2[nH]c1=O)C(=O)NC1CCCCC1	0.5
COc1ccc(-c2c(C(=O)O)nc3ccccc3c2C(=O)O)cc1	i
O=C(CSc1ncccc1-c1nc2ccccc2[nH]1)NCc1ccco1	1.4
COc1ccc(S(=O)(=O)NC(CC(=O)N2CCC3(CC2)OCCO3)C(C)C)cc1 (configuration not stated)	1.6
COc1ccc(-n2nnnc2S(=O)(=O)CC(=O)N2CCCCC2)cc1	i
CC(/C=N/n1cnnc1)=C\c1ccco1	8.5
CCOC(=O)CN1C2=NCCN2c2ccccc21	0.2
O=C(NCc1ccccc1)C1CCCN1S(=O)(=O)c1cccc2cccnc12 (configuration not stated)	4.5
CSCc1cc(N(C)C)nc(SCc2ccc(Cl)c(Cl)c2)n1	0.4
CCCCN(CCCC)C(=O)c1nsnc1-c1ccccc1O	i
COc1ccc(C2(C(=O)Nc3ccc(C(=O)O)cc3)CCOCC2)cc1	0.3
Cc1cc(S(=O)(=O)N2CCN(Cc3ccccc3)CC2)c(C)s1	0.1
Cc1ccc(OCCCC(=O)N2CCOCC2)c(C)c1	2.4
O=S1(=O)N=C(Oc2ccccc2)c2ccccc21	i
COc1ccc(S(=O)(=O)Nc2c3ccccc3nc(=O)n2-c2ccccc2)cc1	1.2
CSc1cccc(NC(=O)C(C)Sc2ccc(C)cc2)c1 (configuration not stated)	i
CN1CCC(OC(=O)c2cccc(Br)c2)CC1	0.8
Cc1ccc(/C=C2/C(=O)NC(=O)N(CCc3ccc(F)cc3)C2=O)o1	i
CN(C)c1ccc(P(=O)(OCc2ccccc2)C(O)c2ccncc2)cc1 (configuration not stated)	i
Cc1[nH]c(=O)[nH]c(=O)c1CSc1nnc([C@@H](NC(=O)OC(C)(C)C)C(C)C)o1	i
CCOC(=O)CCc1c(C)c2ccc(OC(C)C(=O)OCC)c(C)c2oc1=O (configuration not stated)	i
O=C(CSC1=NCCS1)NC1CCCCC1	0.4
Following part:
SMILES	H5N1 CPE
COc1ccccc1C(=O)Nc1c2c(nn1-c1cccc(C)c1C)CS(=O)C2 (configuration not stated)	0.3
O=C(Nc1ncc2c(n1)-c1ccccc1CC2)c1cccc(Cl)c1	0.6
C=CCSc1nnc(-c2cnn(-c3ccccc3)c2-n2cccc2)n1C	2.5
CCCNC(=O)c1cccc(C(F)(F)F)c1	i
O=c1nc2c(-c3ccccc3F)n[nH]n2c2ccccc12	i
CC1CC(OCC(O)CN2CCN(Cc3ccccc3)CC2)CC(C)(C)C1 (configuration not stated)	0.5
Clc1cccc(-c2nc3nc4ccccc4nc3n2Cc2ccco2)c1	i
CCN1CCN(C(c2cccs2)C(C)NC(=O)c2ccccc2F)CC1 (configuration not stated)	i
CC(=O)c1cccc(NC(=O)COc2ccc(S(=O)(=O)N3CCCCC3)cc2)c1	2.4
CSc1ccccc1-n1nnnc1SCc1ccccc1	1.1
Cc1cccc(N(CC(=O)NC2CCCC2)C(=O)c2c(C)noc2C)c1	i
c1ccc(CCn2c3ccccc3c3nnc(SCc4ccc5nonc5c4)nc32)cc1	1.1
COc1cc(OC)c(OC)cc1CN(C)C(c1ccccc1)c1nnnn1-c1ccccc1C (configuration not stated)	i
COc1ccc(N(C(=O)c2ccn[nH]2)C(C(=O)NC(C)(C)C)c2ccc(F)cc2)cc1 (configuration not stated)	i
Cc1ccc(C(=O)CSc2nn3c(=O)c(C(C)(C)C)nnc3s2)cc1	i
O=C(Nc1cnccn1)c1ccncc1	i
COc1ccc(-n2nnnc2SCc2nc(N)nc(N3CCOCC3)n2)cc1	i
Cn1cc(/C=N/n2cnc3sc4c(c3c2=O)CCCC4)c2ccccc21	i
CC(=O)CCc1ccc(OCCCCn2cncn2)cc1	0.1
Cc1ccc(-n2nc(C)c3c2OC(N)=C(C#N)C3c2cccs2)cc1 (configuration not stated)	i
CCCCCOC(=O)C1C2C=CC3(CN(c4ccccc4C)C(=O)C13)O2 (configuration not stated)	i
Cc1cc(C(=O)Nc2c(C)nn(Cc3ccc(F)cc3)c2C)on1	0.5
CC1=CC(C)(C)N(S(=O)(=O)c2ccc(F)cc2)c2ccc(C)cc21	2.8
Cc1ccc(Cn2c(C)cc3c(c2=O)C(c2cccs2)C(C#N)=C(N)O3)cc1 (configuration not stated)	i
Cc1cccc(CSc2nnc(NC(=O)CSc3nnc(C)s3)s2)c1	i
The listing continues:
SMILES	H5N1 CPE
CCOc1ccc(-c2noc(CCC(=O)O)n2)cc1	i
COc1cccc(C(=O)NCC(=O)n2nc(C)cc2C)c1	0.3
O=c1oc(-c2cccs2)nc2c1cnn2-c1ccccc1	i
CCOC(=O)C1CCCN(CCCc2ccccc2)C1 (configuration not stated)	0.7
CCOC(=O)C(C(=O)Nc1ccccc1C)C1CCCCC1 (configuration not stated)	1.7
CCOc1ccc(S(=O)(=O)Nc2ccccc2SC)c2cccnc12	1.6
Cc1ccc(Oc2ccc(C(=O)NC3CCSC3=O)cn2)cc1 (configuration not stated)	1.7
COc1cc(OC)cc(OCC(O)Cn2cnc3cc(C)c(C)cc32)c1 (configuration not stated)	1.1
Cc1nnc(NC(=O)c2c(-c3ccccc3)noc2C)s1	0.6
O=S(=O)(NC1CCc2ccccc21)c1ccc(S(=O)(=O)N2CCCC2)cc1 (configuration not stated)	3.2
COCc1cc(C)nc(SCC(=O)Nc2cc3c(cc2C#N)OCO3)c1C#N	1.4
CCCN(CCC)S(=O)(=O)c1ccc(NC(=O)COc2ccccc2)cc1	0.9
Cc1cc(S(=O)(=O)N2CCCC2)ccc1OCC(=O)NCc1ccco1	1.4
O=C(NC1CCCCC1)N1CCN(c2ncccn2)CC1	0.5
O=C(CSc1nnc(CNC(=O)c2cccs2)o1)Nc1ccc2c(c1)OCO2	i
COC(=O)c1ccccc1NS(=O)(=O)c1cn(C)c(=O)n(C)c1=O	0.5
CCOc1ccc(C(=S)N2CCOCC2)cc1	i
CC1CCc2nn(CC(=O)NC3CCCC3)cc2C1 (configuration not stated)	i
Cc1ccc(C(=O)NCCSC(C)(C)C)cc1	0.1
O=C(NC1=NCCS1)C1CC(=O)N(c2ccccc2)C1 (configuration not stated)	i
O=C(NCCN1CCN(C(=O)NC2CCCCC2)CC1)NC1CCCCC1	i
Cc1ccc(C)c(-n2c(SCC(=O)N3CCCC3)nnc2-c2ccccn2)c1	1.6
O/N=C/c1cc(Cl)ccc1OCc1cccc2ccccc12	2.2
COCCNC(=O)c1ccc(CS(=O)(=O)c2ccc(Cl)cc2)o1	i
FC(F)(F)c1cc(-c2ccco2)nc(-n2cnc3ccccc32)n1	1.1
Later entries
SMILES	H5N1 CPE
C=CCn1cc(-c2ccc(Cl)cc2)cc(C#N)c1=O	i
CCS(=O)(=O)N1CCN(C(=O)C(c2ccccc2)c2ccccc2)CC1	0.9
O=C(CN1CCCCCC1)N1c2ccccc2C=Cc2ccccc21	i
O=C1c2ccccc2CC1Sc1nnc(-c2ccccn2)o1 (configuration not stated)	i
CCOc1c(OC(C)=O)ccc(/C=C2\N=C(SCC)SC2=O)c1[N+](=O)[O-]	i
Cc1cccc(/C=C/C(=O)c2cc(Br)ccc(=O)c2O)c1	1.3
CC(OC(=O)c1cc2sccc2n1C)C(=O)NCc1cccs1 (configuration not stated)	i
CN1C(=S)SC(/[N+]([O-])=C\c2ccccc2)C1(C)C (configuration not stated)	0.0
O=C(Cn1c(C(F)(F)F)nc2ccccc21)Nc1ccccc1N1CCOCC1	i
CS(=O)(=O)N(CCc1ccccc1)CC(=O)N1CCc2ccccc2C1	0.0
O=S(=O)(NCCSc1ccc(Cl)cc1)c1ccc(F)cc1	i
O=C(Cc1ccccc1)NCC(=O)OCC(=O)c1cccs1	i
O=C(C1CCCCC1)N1CCN=C1SCc1cccnc1	3.4
COc1ccc(N(CN2C(=O)C3C4C=CC(C4)C3C2=O)C(=O)c2ccco2)cc1 (configuration not stated)	1.0
Cc1cc(C(F)F)n2ncc(C(=O)N3CCC(C(N)=O)CC3)c2n1	i
COc1ccccc1S(=O)Cc1ccc(C(=O)O)o1 (configuration not stated)	1.0
CC1(C)Cc2ccccc2-c2nnc(-c3cccnc3)n21	0.4
O=C(c1cccs1)N(C(=O)c1cccs1)c1ccc(Br)cn1	0.3
Nc1cccc(-n2nncc2-c2ccccc2)c1	0.2
NC(=O)C1=NOC(CNc2ncc(C(F)(F)F)cc2Cl)C1 (configuration not stated)	i
COc1ccc(Cn2nnnc2C(C(C)C)N2CCc3ccccc32)cc1 (configuration not stated)	1.4
Cn1cc(-c2nnc(-c3ccccc3)o2)c2ccccc21	i
Cc1ccc(CNC(=O)Cn2cccc2C(=O)c2ccccc2)cc1	i
CCOC(=O)C1=C(NC(=S)NC(=O)c2ccccc2)c2ccccc2CC1C(C)C (configuration not stated)	6.9
COc1ccc(-c2cc(C(=O)Nc3sc4c(c3C#N)CCCC4)c3ccccc3n2)cc1OC	i
Next section
SMILES	H5N1 CPE
CCC(C)NC(=O)c1cc(-c2ccc(OC)cc2)on1 (configuration not stated)	i
COc1ccccc1NS(=O)(=O)c1cccc(C(=O)NN)c1	i
COc1cc(NC(=O)CSc2nc3ccccc3c(=O)n2C)ccc1NC(=O)c1ccco1	i
Cc1occc1C(=O)NC(C)c1ccc2c(c1)OCO2 (configuration not stated)	0.3
Cc1c(NC(=O)c2ccc(Br)o2)cccc1C(=O)O	0.2
CCOC(=O)NC(=O)/C(C#N)=N/Nc1ccc(F)cc1	i
COc1cc2cc(CN(Cc3nnnn3Cc3ccco3)C3CCCCC3)c(=O)[nH]c2cc1OC	0.0
O=C(COC(=O)c1ccc(S(=O)(=O)N2CCCC2)cc1)NCc1ccc(Cl)cc1	i
CCOC(=O)c1cc2sccc2n1Cc1ccc(C#N)cc1	i

Reformatted: entries from further up
smiles | H5N1 CPE
O=C(Cc1ccccc1)NCC(=O)OCC(=O)c1cccs1 | i
O=C(C1CCCCC1)N1CCN=C1SCc1cccnc1 | 3.4
COc1ccc(N(CN2C(=O)C3C4C=CC(C4)C3C2=O)C(=O)c2ccco2)cc1 (configuration not stated) | 1.0
Cc1cc(C(F)F)n2ncc(C(=O)N3CCC(C(N)=O)CC3)c2n1 | i
COc1ccccc1S(=O)Cc1ccc(C(=O)O)o1 (configuration not stated) | 1.0
CC1(C)Cc2ccccc2-c2nnc(-c3cccnc3)n21 | 0.4
O=C(c1cccs1)N(C(=O)c1cccs1)c1ccc(Br)cn1 | 0.3
Nc1cccc(-n2nncc2-c2ccccc2)c1 | 0.2
NC(=O)C1=NOC(CNc2ncc(C(F)(F)F)cc2Cl)C1 (configuration not stated) | i
COc1ccc(Cn2nnnc2C(C(C)C)N2CCc3ccccc32)cc1 (configuration not stated) | 1.4
Cn1cc(-c2nnc(-c3ccccc3)o2)c2ccccc21 | i
Cc1ccc(CNC(=O)Cn2cccc2C(=O)c2ccccc2)cc1 | i
CCOC(=O)C1=C(NC(=S)NC(=O)c2ccccc2)c2ccccc2CC1C(C)C (configuration not stated) | 6.9
COc1ccc(-c2cc(C(=O)Nc3sc4c(c3C#N)CCCC4)c3ccccc3n2)cc1OC | i
CCC(C)NC(=O)c1cc(-c2ccc(OC)cc2)on1 (configuration not stated) | i
COc1ccccc1NS(=O)(=O)c1cccc(C(=O)NN)c1 | i
COc1cc(NC(=O)CSc2nc3ccccc3c(=O)n2C)ccc1NC(=O)c1ccco1 | i
Cc1occc1C(=O)NC(C)c1ccc2c(c1)OCO2 (configuration not stated) | 0.3
Cc1c(NC(=O)c2ccc(Br)o2)cccc1C(=O)O | 0.2
